Six1-Eya2 blk: inhibitors of human Six1/Eya2 interaction | hit rate 0.56% among 360,000 | Q15475+O00167 | activity change, % (test concentration not listed) | AID 651725 | AlphaScreen GST-Six1/His-Eya2 binding, biochemical; stronger effect = lower value; control for the full effect not named in the record; in the data active = activity change below about -65%; inconclusive = about -30% to -65%; inactive = above about -30%; also: % is scaled to controls: 0 for no effect and ±100 for the full control effect; compound concentration not given in the record
Target sequence (O00167 whole entry, looked up): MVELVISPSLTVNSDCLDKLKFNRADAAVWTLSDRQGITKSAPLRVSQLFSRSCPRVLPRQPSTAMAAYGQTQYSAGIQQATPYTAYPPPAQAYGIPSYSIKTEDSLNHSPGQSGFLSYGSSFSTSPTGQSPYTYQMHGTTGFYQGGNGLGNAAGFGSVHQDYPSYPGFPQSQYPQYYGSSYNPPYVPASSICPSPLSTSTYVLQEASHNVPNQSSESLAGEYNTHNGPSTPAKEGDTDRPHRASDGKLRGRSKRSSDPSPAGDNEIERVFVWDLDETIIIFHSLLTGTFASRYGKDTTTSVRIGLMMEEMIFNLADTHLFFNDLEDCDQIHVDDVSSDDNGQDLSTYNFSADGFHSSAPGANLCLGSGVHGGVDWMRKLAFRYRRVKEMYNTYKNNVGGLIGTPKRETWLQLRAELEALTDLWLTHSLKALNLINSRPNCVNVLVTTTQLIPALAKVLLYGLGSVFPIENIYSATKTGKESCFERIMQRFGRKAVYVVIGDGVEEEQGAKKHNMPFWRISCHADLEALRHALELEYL
Target sequence (Q15475 whole entry, looked up): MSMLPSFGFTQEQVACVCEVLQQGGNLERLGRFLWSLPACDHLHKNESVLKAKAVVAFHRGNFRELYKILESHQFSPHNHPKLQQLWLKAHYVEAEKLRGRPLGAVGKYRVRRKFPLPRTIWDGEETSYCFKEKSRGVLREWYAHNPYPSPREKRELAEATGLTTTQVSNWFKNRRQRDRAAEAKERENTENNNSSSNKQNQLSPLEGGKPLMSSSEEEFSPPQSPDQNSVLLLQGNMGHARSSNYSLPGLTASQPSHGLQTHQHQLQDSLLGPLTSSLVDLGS
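Six1/Eya2 binding was read as AlphaScreen signal after compounds were pinned into GST-Six1 plus His-tagged Eya2 (5X stock 250/500 nM) in pH 8.0 Tris/NaCl/TCEP buffer, beads added, then incubated 1 h, 37 C, dark.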
TRPV1 potentiator: enhances activation of the human vanilloid receptor TRPV1. potentiation, % at 8.33 µM. hit rate 0.02% among 320,000. TRPV1-expressing cells, Fluo-8 calcium influx, capsaicin EC20 potentiation; host cell line not named in the record; control for the full effect not named in the record. Q8NER1; active means potentiation above 80%; inconclusive means 30% to 80%; inactive means below 30%; also: 0% is about no effect
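TRPV1-expressing cells were cultured overnight at 35.5C and loaded with Fluo-8 calcium dye for 40 to 90 min at room temperature. After a 10 s baseline, compound was added and calcium influx was read kinetically for 3 min (ex 480/em 520 nm).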
D2 ag: activates the human D2 dopamine receptor | DiscoveRx PathHunter D2 beta-arrestin, luminescence, 90 min; 100% = 57 uM dopamine signal | activation, % (no concentration beside the values) | hit rate 0.084% among 360,000; in the data active = activation above about 40%; inconclusive = about 15% to 40%; inactive = below about 15%; also: compound concentration not given in the record; the text of the record calls up to 30% inactive
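DiscoveRx PathHunter D2 beta-arrestin cells (2,100/well) attached overnight, then compound-stimulated 90 min at 37 C in HBSS/10 mM HEPES/0.1% Tween-20 buffer; beta-galactosidase complementation read by luminescence after 1 h at ambient temperature. Dopamine 57 uM final (EC100) as control.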
D2 potentiator: potentiates the human D2 dopamine receptor allosterically; potentiation, % (concentration not given with the values); DiscoveRx D2 beta-arrestin cells, luminescence, 90 min; 100% = 57 uM dopamine signal; hit rate 0.23% among 360,000; AID 624464; active = potentiation of 50% or more; inconclusive = 30% to 50%; inactive = 30% or less;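 also: compound concentration not given in the record; tested on top of an EC20 dose of dopamine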
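PathHunter beta-arrestin assay in DiscoveRx D2 cells. Compounds were added with an EC20 of dopamine (50 nM final) for 90 min at 37 deg C. Luminescence was read 1 h after detection reagent, with 57 uM dopamine as the EC100 control.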
PINK1 modulator: modulators of PINK1 expression. Potency, µM (titrated, usually from 76.6 µM), inactives show at the top dose activation (PINK1 increase), actives largely listed as activators. PINK1 immunofluorescence, high-content cytometry, 24 h. hit rate 0.2% among 410,000; active = well fitted activation curve with a large enough effect; inconclusive = small, poorly fitted or top-dose-only effect; inactive = flat fitted curve, though single readings scatter; cell line not stated here;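 also: potency is read from the fitted curve at half-maximal effect; % of control where 0% means no effect; nearly all actives have a fitted effect of over 65% in size; a mitochondrial uncoupler was the plate control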
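Fluorescence from anti-PINK1 antibody, together with nuclear and cell stains, was scanned on a laser-scanning cytometer. Before staining, stable-line cells were incubated 24 hours with compounds at 5 concentrations; primary antibody 12 h at 10 degrees C.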
CtBP-E1A blk: CtBP/E1A binding inhibition; AlphaScreen GST-E1A/His-CtBP binding, 1536-well; stronger effect = lower value; control for the full effect not named in the record; activity change, % (concentration not given with the values); hit rate 0.49% among 340,000; AID 651724; in the data active means activity change below about -65%; inconclusive means about -30% to -65%; inactive means above about -30%; also: % is scaled to controls: 0 for no effect and ±100 for the full control effect
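AlphaScreen with 125 nM GST-E1A and 125 nM His-CtBP (5X stocks) in Tris pH 8.0, 300 mM NaCl, BSA, Tween 20, TCEP. Compounds preincubated 2 h at 37 deg C, then glutathione donor/nickel acceptor beads added for 1 h at 37 deg C in dark.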
Sfp inh: blocks B. subtilis Sfp PPTase activity; Biochemical Sfp PPTase activity, qHTS; Q9F4F7; hit rate 3.5% among 310,000; AID 1490; Potency, µM, for the others: max response, negative = inhibition, usual class: inhibitors; active = well fitted inhibition curve with a large enough effect; inconclusive = small, poorly fitted or top-dose-only effect, or another doubt; inactive = no such curve, though single readings can be large or run the other way;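 also: the enzyme is Sfp with the accession as filed and its product quenches rhodamine fluorescence; potency is read from the fitted curve at half-maximal effect; 0% = enzyme reaction without inhibitor and -100% = no enzyme wells; top concentration of the series not given in the record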
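Buffer: 50 mM Hepes-Na pH 7.6, 10 mM MgCl2, 0.01% Nonidet P-40, 0.01% BSA. Enzyme 15 nM, pre-exposed to compound 15 min; substrates then added and fluorescence change tracked over 30 min.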
An asterisk follows results filed as active; ? = inconclusive; / = no result given; & = joins results of further samples; [ ] = remark or other dose.

Fields – Six1-Eya2 blk, CtBP-E1A blk, D2 potentiator, D2 ag, Sfp inh, TRPV1 potentiator, PINK1 modulator
1) NNC(=O)c1oc2ccccc2c1-n1cccc1
    -4, 7, 4, 3.1, -11%, ?, 3.6%
2) Cc1cc(C)n(NC(=S)NC2CCCCC2)c(=O)c1C#N
    9, 5, -12, -6.2, -14%, 4, 1.7%
3) Cc1ccc(C)c(C(=O)CCC(=O)O)c1
    -12, /, -1, 3.2, 11%, -11, 0.2%
4) COc1ccc(C2CC(C(C)(C)C)=NN2c2ccc(S(N)(=O)=O)cc2)cc1 (stereo not given)
    -6, -17, -2, -7.5, /, /, 1.6%
5) CSc1cccc(NS(=O)(=O)c2cc(Br)cnc2N)c1
    0, /, -2, -1.2, 3%, -7, -0.1%
6) COc1ccc([C@@H](C)NC(=O)CCc2nnc(-c3cc(C)on3)o2)cc1
    20, 1, -4, -0.1, 10%, 6, 3.9%
7) COc1ccccc1NC(=S)N(c1ccccc1)C(C)C
    -4, 5, -7, 1.8, -1%, 15, 9.6%
8) NC(=S)c1csc(CCNC(=O)c2ccccc2)n1
    -1, 3, -11, -4.3, /, /, 0.2%
9) O=C(Nc1cccc(NC(=O)c2cccc(F)c2)c1)c1ccccc1
    -6, 13, 3, -3.2, 3%, 10, 5.4%
10) COc1ccc(CCC(=O)N2CCCC(Nc3ccccc3)C2)cc1OC (stereo not given)
    -8, 0, -2, -3.5, 8%, -16, 1.1%
11) O=C(C1=C[C@@H](c2ccccc2)C[C@@H](OCc2ccc(CO)cc2)O1)N1CCCCCCC1
    0, 0, -8, -1.1, -4%, -27, -1.1%
12) O=C(N/N=C/c1ccccc1O)c1cc[n+]([O-])cc1
    -78*, -94*, -4, -6.3, 15%, -1, -1.0%
13) CN1CCN(Cc2nc3c(c(=O)[nH]c(=O)n3C)n2Cc2c(F)cccc2Cl)CC1
    4, 1, -2, -30, -6%, -7, 7.3%
14) Cc1ccc(-n2cc(CN3CCCN(C=O)CC3)c(-c3ccc(F)cc3)n2)cc1
    -12, -6, -3, -5.9, -7%, -19, 5.7%
15) O=C(Nc1ccccc1)/C(=C\c1ccco1)NC(=O)c1ccco1
    -1, 0, 0, 3.0, 45µM*, -21, 0.6%
16) CC1(C(=O)NS(=O)(=O)c2ccc3ccccc3c2)CCN1C(=O)C1(c2ccc(Cl)cc2)CCC1 (stereo not given)
    -10, -4, -5, -3.3, /, /, 0.9%
17) Cc1c(O)ccc(C(=O)CN2C(=O)c3ccccc3C2=O)c1O
    -5, -1, -6, -3.6, -9%, -4, 0.3%
18) COc1ccccc1N1CCN(C(=O)CN(C2CCCCC2)S(C)(=O)=O)CC1
    1, -23, -6, -0.7, -28%, 0, 2.5%
19) CC1=C(C(=O)Nc2ccccc2)C(c2ccc(C)o2)n2c(s/c(=C/c3ccccc3)c2=O)=N1 (stereo not given)
    -17, -1, -2, -3.8, 13%, 10, 5.8%
20) CCCC(=O)Nc1nc2ccc(S(N)(=O)=O)cc2s1
    -2, 3, -4, -3.1, 6%, 0, -0.5%
21) CCOC(=O)CSc1nnc(NCC(=O)OC)c(=O)[nH]1
    10, -5, -16, -0.5, 56µM*, 3, 2.4%
22) CCc1cc(=O)[nH]c(SCCC(F)=C(F)F)n1
    9, 27, 2, 1.7, 12%, 0, -1.1%
23) COc1ccccc1CNC(=O)COC(=O)c1cc(-c2ccco2)nc2ccccc12
    -19, 29, -8, -1.0, ?, -17, -1.0%[38.3 µM]
24) CCOC(=O)Cc1csc(NC(=O)c2ccc(C)c(S(=O)(=O)N3CCOCC3)c2)n1
    -10, -1, 5, 2.4, /, -2, 2.6%
25) COCc1nnc(NC(=O)CCN2C(=O)c3ccccc3C2=O)s1
    4, 7, -3, -4.0, -4%, 0, 7.4%[38.3 µM]
26) CCSc1ccc([C@@H]2[C@@H]3C(=O)N(CC)C(=O)[C@@H]3[C@]3(C(=O)OC)CCCCN23)cc1OC
    -9, -1, -3, -2.3, /, ?, 1.4%
27) COc1ccc(CC(=O)N/N=C/c2c(C)n(C)c3ccccc23)cc1OC
    -14, /, -32, -5.4, 4%, -13, 4.2%
28) CN(NC(=O)C(=O)NCc1ccco1)C(=O)Nc1ccc(Cl)cc1
    -3, 4, -8, -3.1, /, /, 0.9%
29) CCn1c(-c2ccc3ncccc3c2)n[nH]c1=S
    1, 0, -12, 4.2, 16%, 1, /
30) O=C(c1noc2c1CCc1ccccc1-2)N1CCOCC1
    -1, 2, -6, -3.9, 12%, -21, 2.6%[38.3 µM]
31) COc1ccc(C(F)(F)F)cc1N/C=C\c1nnnn1-c1ccc(C)cc1
    4, 17, -6, -6.3, 13%, -3, 7.6%
32) Cc1ccccc1SCC(=O)Nc1cc(S(=O)(=O)N2CCOCC2)ccc1N1CCOCC1
    0, 0, -1, 4.3, -2%, -13, 0.2%
33) COc1cccc(-c2cc(=O)[nH][nH]2)c1
    -3, 2, -14, 1.0, -26%, 11, 2.6%
34) CN(C)S(=O)(=O)N1CCN(c2ccccc2Cl)CC1
    8, 2, -12, -0.9, 11%, -10, 5.4%[38.3 µM]
35) O=C(COc1ccc(Br)cc1CO)N1CCCc2ccccc21
    -13, 2, 5, -3.0, 6%, -4, 0.4%
36) CC(=O)Nc1cccc(-c2ccnc3c2CC(C)(C(=O)Nc2ccc(C(C)C)cc2)O3)c1 (stereo not given)
    -1, -12, -16, 5.0, /, /, 0.3%
37) O=C(Nc1ccc(Cl)cc1C(=O)NCC1CCCO1)c1ccc(Cl)cc1Cl (stereo not given)
    1, 3, -13, -2.8, 11%, -6, 0.3%
38) CCOC(=O)C1CCN(C(=O)c2cccnc2Cl)CC1
    1, 3, -11, -3.0, 5%, 3, 8.6%[38.3 µM]
39) Cc1cc(O)c(/C=N/Nc2cccc(Cl)c2)c(=O)o1
    -4, 14, 5, -0.3, -15%, -24, -2.1%
40) CN(CC(=O)Nc1ccc(S(=O)(=O)N2CCCC2)cc1)CC(=O)Nc1cccc(F)c1
    9, -17, 1, -0.4, 2%, 1, 0.0%
41) CCC/C(=N\NC(=O)c1ccc(OC)c(OC)c1)c1ccccc1
    8, /, -17, -2.9, 8%, -3, -0.1%
42) CCc1ccc2nc(SCC(=O)NCC3CCCO3)c(C#N)cc2c1 (stereo not given)
    8, 4, -6, -5.7, 26%, 2, -1.2%
43) COc1ccccc1N(C)S(=O)(=O)c1ccc(C(=O)N(C)Cc2ccc(Cl)s2)cc1
    2, -9, -11, -1.4, /, -3, -3.4%
44) CC(=O)N(Cc1cccnc1)Cc1cc2ccccc2[nH]c1=O
    22, 10, -9, -0.8, 8%, 5, 2.3%
45) COc1ccc(CC(=O)Nc2c(C(=O)N3CCN(c4ccccc4)CC3)oc3ccccc23)cc1OC
    2, 2, 1, 3.8, 10%, -4, 3.1%&0.1%
46) CC(C)c1ccc(C2OCC(C)([N+](=O)[O-])CO2)cc1 (stereo not given)
    0, 10, -2, 1.9, /, /, -0.8%
47) Cc1occc1C(=O)Nc1cccc([N+](=O)[O-])c1C
    -4, 7, 0, -5.7, 0%, 2, -0.8%
48) O=C(CSc1nnc(-c2ccc(Br)cc2)o1)Nc1cccc2ccccc12
    0, 1, -5, -1.2, -9%, -7, 2.1%[38.3 µM]
49) COc1cccc(NC(=S)NCc2ccc3c(c2)cc(C)n3C)c1
    ?, /, 10, 5.3, 20%, -1, -0.8%
50) COC(=O)c1sccc1NC(=O)c1cccc(OC)c1
    14, 16, -4, 1.5, -16%, 3, -1.6%

Following part
Fields – Six1-Eya2 blk, CtBP-E1A blk, D2 potentiator, D2 ag, Sfp inh, TRPV1 potentiator, PINK1 modulator
51) CCOC(=O)C(Cc1ccccc1)C(=O)c1ccco1 (stereo not given)
    5, 5, -6, -3.2, /, -12, 0.0%
52) Cc1ccc(-c2nnc(-c3ccccc3S(=O)(=O)Cc3ccc(Cl)cc3)o2)cc1
    0, 0, -1, -1.7, 17%, 14, 5.8%
53) COc1cccc(/C=N/NC(=O)c2cc(C34CC5CC(CC(C5)C3)C4)[nH]n2)c1
    3, -3, 7, 3.0, -9%, -21, 27%
54) COc1cc(CCN(C(=O)c2cc3ccccc3[nH]2)C(c2ccccn2)c2nc3ccccc3[nH]2)cc(OC)c1 (stereo not given)
    -13, -21, 3, 2.6, /, /, 2.1%
55) O=C(Nc1ccccc1Cl)Nc1ccccc1Cl
    -1, 5, 0, -2.8, 26%, -18, 4.9%
56) CCCN1CCN(C(=O)C2CCN(c3nnc(C)c4c(C)n(-c5ccc(C)cc5)nc34)CC2)CC1
    -7, -10, -17, -5.7, 0%, 2, -1.9%
57) COc1ccc(NC(=O)COc2ccccc2C(=O)NCC(c2ccccc2)N(C)C)cc1Cl (stereo not given)
    -21, ?, -12, -1.2, -3%, 0, -1.4%
58) Nc1nc(-c2ccccc2)c(-c2ccc([N+](=O)[O-])cc2)s1
    -2, -4, 0, -3.5, 10%, 5, 10%
59) O=C(CSc1ncnc2c1nnn2Cc1ccc(F)cc1)NC1CCCC1
    3, 3, 4, 0.8, 16%, -7, 0.0%
60) COc1ccc(NC(=O)N2CCc3ccccc3C2)cc1
    -5, -8, -3, -2.4, 9%, -19, 0.2%
61) CCOc1cc(/C=N\NC(=O)CN2CCOCC2)ccc1OCc1ccc(F)cc1
    0, 9, 5, -3.0, 19%, 23, 8.7%
62) COc1cccc(-c2c(C(=O)N/N=C/c3cccnc3)nnn2-c2nonc2N)c1
    2, -3, -9, 2.4, 23%, -3, 0.0%

Rows are unselected, and some 3.7% of all compounds hit somewhere here.
